Compound activity from PubChem.
YopH PTP inh: YopH (Yersinia) phosphatase inhibition; AID 898; 140,000 compounds, 0.16% hits; inhibition, %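 (about 10 µM by stock and volumes)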; fluorescence Ex485/Em525;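 active = inhibition of 50% or more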;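 note: controls were vehicle for no effect and minimum signal wells for full effect; inactives centre near -20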
Mtb H37Rv: M. tuberculosis H37Rv growth inhibitors, H37Rv strain (AID 1626) | 220,000 compounds, 0.95% hits | M. tuberculosis H37Rv growth inhibition; higher % means a stronger effect | inhibition, % at 10 µM; hits with a dose series show IC50 in µM;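 active = confirmed in a dose series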;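 note: bacteria incubated seven days before Alamar blue readout; 0% = bacteria only wells and 100% = bacteria with antibiotic wells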
Arbovirus anti: arbovirus infection inhibition; AID 1251; arbovirus infection cell-based antiviral screen; 200,000 compounds, 0.37% hits; inhibition, % at 10 µM;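 active = inhibition from about 30%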;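 note: bluetongue infection of BSR cells; cell survival read as ATP light after 72 h; 0% = infected wells without compound and 100% = uninfected wells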
RecA intein inh: inhibitors of M. tuberculosis RecA intein splicing | 290,000 compounds, 0.75% hits | cell-free RecA intein splicing, fluorescence | inhibition, %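 (about 9 µM by stock and volumes)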; in the data active = inhibition above about 30%;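 note: 0% = vehicle wells and 100% = reference inhibitor control wells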
Target sequence (P9WHJ3 whole entry, looked up): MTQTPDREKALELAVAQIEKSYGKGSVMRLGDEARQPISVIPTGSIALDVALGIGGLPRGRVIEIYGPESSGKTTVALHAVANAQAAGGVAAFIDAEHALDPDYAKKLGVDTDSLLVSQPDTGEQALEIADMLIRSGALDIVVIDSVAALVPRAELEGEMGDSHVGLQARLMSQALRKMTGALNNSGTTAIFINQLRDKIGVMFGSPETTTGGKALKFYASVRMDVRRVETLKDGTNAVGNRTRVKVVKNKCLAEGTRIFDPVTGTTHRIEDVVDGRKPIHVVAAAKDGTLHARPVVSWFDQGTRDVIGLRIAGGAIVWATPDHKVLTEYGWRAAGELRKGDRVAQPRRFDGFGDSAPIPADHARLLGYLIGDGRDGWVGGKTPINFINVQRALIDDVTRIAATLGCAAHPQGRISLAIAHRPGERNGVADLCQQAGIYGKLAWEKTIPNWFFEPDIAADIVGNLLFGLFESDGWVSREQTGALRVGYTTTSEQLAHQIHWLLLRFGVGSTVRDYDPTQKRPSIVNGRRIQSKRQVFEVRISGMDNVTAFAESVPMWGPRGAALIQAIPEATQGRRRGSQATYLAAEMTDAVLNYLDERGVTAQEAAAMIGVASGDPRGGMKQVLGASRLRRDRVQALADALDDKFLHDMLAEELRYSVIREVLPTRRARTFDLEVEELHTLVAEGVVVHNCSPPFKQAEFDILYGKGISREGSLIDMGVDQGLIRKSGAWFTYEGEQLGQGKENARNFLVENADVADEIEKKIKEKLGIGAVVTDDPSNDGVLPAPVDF
Mtb bLac sens: beta-lactam sensitization of Mtb H37Rv; 330,000 compounds, 0.27% hits; AID 434955; inhibition, % at 25 µM; M. tuberculosis H37Rv growth with meropenem, percent inhibition; hits of this screen are not shown here;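 active = about 74% or more and at least 40 points above the plate without the antibiotic, then above 30% in a dose series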;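 note: growth measured after seven days incubation then overnight dye step; 0% = bacteria only wells and 100% = bacteria with antibiotic; twin plates without the antibiotic show which effects depend on it; some results filed as inactive read as strong as hits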
Arbovirus anti repeat: further read-out of Arbovirus anti, marked with its call; inhibition, %; measured here: 10K subset replicate screen; many hits read low in the repeat;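 first of two repeat runs on a subset; 0% = infected and 100% = uninfected wells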
* marks the source's active call; other numbers are inactive results. Not all compounds are listed; count on the stated rates, not on these rows.

Start of the data: the first 7 entries, to show the layout:
Screening O=C(CN1C(=O)S/C(=C\C=C\c2ccccc2)C1=O)Nc1cccc(O)c1 returned YopH PTP inh -35, Mtb H37Rv -3%, Arbovirus anti -30, RecA intein inh 4.5 and Mtb bLac sens 28.
Screening N#CC(C#N)=C1C(=O)N(CCN2CCCCC2)c2ccccc21 returned Mtb H37Rv -4%, RecA intein inh 15 and Mtb bLac sens -12.
Screening Cc1cccn2c(CN[C@@H]3CCCC[C@H]3c3ccccc3)c(C(=O)N3CCOCC3)nc12 returned Mtb H37Rv -6%, Arbovirus anti 9, RecA intein inh 2.3 and Mtb bLac sens -6.
`CC(Sc1nccn1C)C(=O)c1c(N)n(C)c(=O)n(C)c1=O` (stereo unspecified) gave RecA intein inh 0.0 and Mtb bLac sens -5.
CCN(CCn1cccn1)C(=O)c1cc(COc2ccccc2SC)on1 was read as RecA intein inh 0.5 and Mtb bLac sens 2.
`O=C(COC(=O)CNC(=O)c1cccc([N+](=O)[O-])c1)Nc1cccc(S(=O)(=O)N2CCCC2)c1` gave YopH PTP inh -21, Mtb H37Rv -1%, Arbovirus anti -1, RecA intein inh -2.2 and Mtb bLac sens -11.
Screening O=C(CN1C(=O)COc2ccccc21)Nc1ccc(F)cc1 returned YopH PTP inh -55, Mtb H37Rv 3%, Arbovirus anti -13, RecA intein inh 6.3, Mtb bLac sens -1 and Arbovirus anti repeat 0.

The whole of this part, from the first entry:
Screening O=C(CN1C(=O)S/C(=C\C=C\c2ccccc2)C1=O)Nc1cccc(O)c1 returned YopH PTP inh -35, Mtb H37Rv -3%, Arbovirus anti -30, RecA intein inh 4.5 and Mtb bLac sens 28.
Screening N#CC(C#N)=C1C(=O)N(CCN2CCCCC2)c2ccccc21 returned Mtb H37Rv -4%, RecA intein inh 15 and Mtb bLac sens -12.
Screening Cc1cccn2c(CN[C@@H]3CCCC[C@H]3c3ccccc3)c(C(=O)N3CCOCC3)nc12 returned Mtb H37Rv -6%, Arbovirus anti 9, RecA intein inh 2.3 and Mtb bLac sens -6.
`CC(Sc1nccn1C)C(=O)c1c(N)n(C)c(=O)n(C)c1=O` (stereo unspecified) gave RecA intein inh 0.0 and Mtb bLac sens -5.
CCN(CCn1cccn1)C(=O)c1cc(COc2ccccc2SC)on1 was read as RecA intein inh 0.5 and Mtb bLac sens 2.
`O=C(COC(=O)CNC(=O)c1cccc([N+](=O)[O-])c1)Nc1cccc(S(=O)(=O)N2CCCC2)c1` gave YopH PTP inh -21, Mtb H37Rv -1%, Arbovirus anti -1, RecA intein inh -2.2 and Mtb bLac sens -11.
Screening O=C(CN1C(=O)COc2ccccc21)Nc1ccc(F)cc1 returned YopH PTP inh -55, Mtb H37Rv 3%, Arbovirus anti -13, RecA intein inh 6.3, Mtb bLac sens -1 and Arbovirus anti repeat 0.
For COC(=O)c1cccc(NC(=O)/C=C/c2cccc([N+](=O)[O-])c2)c1 the results were YopH PTP inh -2, Mtb H37Rv -3%, Arbovirus anti -6, RecA intein inh 1.8 and Mtb bLac sens -3.
Screening CC1CCCC(C)N1C(=O)CSc1nc2ccccc2c(=O)[nH]1 (stereo unspecified) returned Mtb H37Rv 4%, Arbovirus anti -3, RecA intein inh -2.0 and Mtb bLac sens -1.
`Cc1cc(C)cc(C(=O)NC(CC(N)=O)c2ccc(NC3CCCCCCC3)c([N+](=O)[O-])c2)c1` (stereo unspecified) gave RecA intein inh -2.0 and Mtb bLac sens -6.
Screening CCO/C=C1\C(=O)N(CC)c2ccccc21 returned YopH PTP inh 30, Mtb H37Rv -2%, Arbovirus anti -4, RecA intein inh 1.3 and Mtb bLac sens -1.
`O=S(=O)(N/N=C/c1ccc(F)cc1)c1ccccc1` gave Mtb H37Rv -4%, Arbovirus anti 4, RecA intein inh -0.9 and Mtb bLac sens 3.
Screening Cn1c2c(c(=O)[nH]c1=O)C(NC(=O)c1ccco1)(C(F)(F)F)C(=O)N2 (stereo unspecified) returned YopH PTP inh 7, Mtb H37Rv -5%, Arbovirus anti -7 and Mtb bLac sens 3.
`CCC(C)[C@H]1CNC(=O)C(=O)N1CCCc1cc(OC)c(OC)c(OC)c1` (stereo partly specified) gave Mtb H37Rv -2%, RecA intein inh -3.3 and Mtb bLac sens -3.
O=C(CSc1nnnn1C1CCCCC1)NCCc1ccccc1 was read as YopH PTP inh -39, Mtb H37Rv 0%, Arbovirus anti -4, RecA intein inh 0.0 and Mtb bLac sens 5.
`CCN(CC)S(=O)(=O)c1cccc(-c2nnc(SCC(=O)NCCC3=CCCCC3)n2N)c1` gave YopH PTP inh -46, Mtb H37Rv 10%, Arbovirus anti -1, RecA intein inh 0.2 and Mtb bLac sens -2.
Screening CC(=O)n1nc(-c2ccco2)nc1SCc1ccccc1 returned YopH PTP inh -21, Mtb H37Rv -16%, Arbovirus anti 12, RecA intein inh 12 and Mtb bLac sens 1.
`CCOc1ccc2nc(SCC(=O)NC3CCCCC3)[nH]c2c1` gave RecA intein inh -3.6 and Mtb bLac sens -1.
CCOC(=O)CSc1nnc(C)c(=O)[nH]1 was read as YopH PTP inh 18, Mtb H37Rv 0%, Arbovirus anti 3, RecA intein inh 0.0 and Mtb bLac sens -16.
`COc1ccc(OCC(=O)Nc2ccc3c(c2)nc(CCn2ccccc2=O)n3C)cc1` gave RecA intein inh 5.0 and Mtb bLac sens -8.
CCc1nnc(NC(=O)CSCc2cc(=O)n3nc(C)sc3n2)s1 was read as RecA intein inh -6.7 and Mtb bLac sens 0.
Screening Cc1ccccc1OCC(=O)N/N=C/c1cn(Cc2ccccc2)c2ccccc12 returned YopH PTP inh -33, Mtb H37Rv 4%, Arbovirus anti -12, RecA intein inh 0.7 and Mtb bLac sens 62.
Cc1cc(NC(=O)c2ccc(Cl)cc2)n(CCOC(=O)c2ccc(Cl)cc2)n1 was read as YopH PTP inh -23, Mtb H37Rv 4%, Arbovirus anti 2, RecA intein inh 1.6 and Mtb bLac sens 1.
`COc1ccc(CCNc2nc(-c3sc(C)nc3C)cs2)cc1OC` gave YopH PTP inh -13, Mtb H37Rv 7%, Arbovirus anti 4, RecA intein inh 1.2 and Mtb bLac sens 14.
For CCOC(=O)c1cc(-c2ccc(OC)cc2)nc2c1c(C)nn2CCC(N)=S the results were Mtb H37Rv 2%, Arbovirus anti 8, RecA intein inh -6.5 and Mtb bLac sens 1.
Cc1ccc(NC(=O)c2ccc(S(=O)(=O)N3CCCCC3)cc2)cc1 was read as YopH PTP inh -32, Mtb H37Rv 1%, Arbovirus anti 0, RecA intein inh -0.7 and Mtb bLac sens 5.
For O=C(CCN1C(=O)/C(=C/c2ccccc2Cl)SC1=S)N1CCCC1 the results were RecA intein inh 3.7 and Mtb bLac sens 100.
Cc1ccc(C(=O)OCC(=O)N2CCC(Cc3ccccc3)CC2)cc1N was read as Mtb H37Rv 1%, Arbovirus anti -8, RecA intein inh 4.5 and Mtb bLac sens -11.
`COc1cccc(Cn2c(NCc3ccco3)nc3c2c(=O)n(C)c(=O)n3C)c1` gave YopH PTP inh 4, Mtb H37Rv -28%, Arbovirus anti 13, RecA intein inh 0.5 and Mtb bLac sens 1.
For COc1nc(NCCO)nc(Nc2ccc([N+](=O)[O-])cc2)n1 the results were YopH PTP inh -22, Mtb H37Rv -4%, Arbovirus anti -6, RecA intein inh 4.1 and Mtb bLac sens 4.
O=C(/C=C/c1ccccc1)NC(=S)Nc1ccc(N2CCOCC2)c(Cl)c1 was read as YopH PTP inh -36, Arbovirus anti -1, RecA intein inh -4.2 and Mtb bLac sens 8.
For Cc1cccc(C)c1NS(=O)(=O)c1ccc(F)cc1 the results were YopH PTP inh -43, Mtb H37Rv 6%, Arbovirus anti 5, RecA intein inh 1.7 and Mtb bLac sens -5.
COc1cc(-c2nc(CN3CCN(C(=O)c4ccco4)CC3)c(C)o2)ccc1F was read as RecA intein inh 0.0 and Mtb bLac sens 7.
COc1ccc(CCNC(=O)CSc2nnnn2-c2ccccc2)cc1 was read as YopH PTP inh -30, Mtb H37Rv 2%, Arbovirus anti 0, RecA intein inh 0.7, Mtb bLac sens -9 and Arbovirus anti repeat -7.
Cc1ccc(Cn2nnnc2CN2CCC(O)(c3cccnc3)CC2)cc1 was read as Mtb H37Rv -4%, Arbovirus anti 3, RecA intein inh -1.3 and Mtb bLac sens -6.
For COc1cc(C(c2c(C)n(C)n(-c3ccccc3)c2=O)c2c(C)n(C)n(-c3ccccc3)c2=O)cc(Br)c1O the results were RecA intein inh -4.3 and Mtb bLac sens 5.
`O=C(N/N=C/c1cccc(Br)c1)c1ccc(Br)cc1` gave Mtb H37Rv -5%, Arbovirus anti -2, RecA intein inh 1.0 and Mtb bLac sens 3.
Nc1cc(=O)nc(SCc2ccccc2)n1Cc1ccco1 was read as YopH PTP inh 9, Mtb H37Rv 4%, Arbovirus anti -3 and RecA intein inh 0.4.
CN(CC(=O)Nc1ccc(Cl)c(C(F)(F)F)c1)C(=O)Cc1cccs1 was read as RecA intein inh 1.6 and Mtb bLac sens 1.
CCOc1ccc(NC(=O)CNC(=O)c2ccc(OC)c(OC)c2)cc1 was read as YopH PTP inh -16, Mtb H37Rv -11%, Arbovirus anti 10 and Mtb bLac sens -2.
COc1ccc(CN2CCC(n3nccc3NC(=O)C3CC3)CC2)c(Cl)c1OC was read as RecA intein inh 5.5 and Mtb bLac sens -1.
Screening S=c1[nH]ccn1-c1cccc(Cl)c1 returned YopH PTP inh -2, Mtb H37Rv 4%, Arbovirus anti 2, RecA intein inh -3.4 and Mtb bLac sens -4.
Screening COc1cccc(-c2nc(CC(=O)O)cs2)c1OC returned YopH PTP inh -30, Mtb H37Rv -12%, Arbovirus anti 4, RecA intein inh 1.3 and Mtb bLac sens -6.
Screening Cc1ccc(C(=O)N2CCN(S(=O)(=O)c3ccccc3[N+](=O)[O-])C2)cc1 returned Mtb H37Rv 0%, Arbovirus anti -3, RecA intein inh -1.1 and Mtb bLac sens -9.
Screening CC(C(=O)NC(C)(C)C)N(Cc1cccs1)C(=O)CCN1CCc2ccccc21 (stereo unspecified) returned Mtb H37Rv 6%, Arbovirus anti 3, RecA intein inh -0.8 and Mtb bLac sens -10.
CC(C)c1ccc(NCCC(=O)c2ccc(Br)cc2)cc1 was read as YopH PTP inh -15, Mtb H37Rv 98%, Arbovirus anti 9, RecA intein inh 1.8 and Mtb bLac sens 88.
`COC(=O)[C@@]1(Cc2ccc(F)cc2)[C@H]2c3cc(C(=O)N(C)C)n(Cc4ccccn4)c3C[C@H]2CN1C(=O)c1ccccc1` gave YopH PTP inh -9, Mtb H37Rv 8%, Arbovirus anti 9 and Mtb bLac sens -8.
For CCC(=NCCC1=CCCCC1)c1c(O)[nH]c(=O)[nH]c1=O the results were YopH PTP inh -41, Mtb H37Rv -8%, Arbovirus anti -26, RecA intein inh -1.0 and Mtb bLac sens 2.
For CCSc1ccc(-c2ccc(C)cc2)nn1 the results were Mtb H37Rv 0%, Arbovirus anti -5 and RecA intein inh 2.5.
For CSc1ncc(C(=O)Nc2ccc(Cl)cc2)c(C)n1 the results were RecA intein inh 1.1 and Mtb bLac sens 100.
For CCCNC(=O)c1ccccc1NC(=O)CN(c1ccccc1OCC)S(C)(=O)=O the results were YopH PTP inh -10, Mtb H37Rv -5%, Arbovirus anti 2, RecA intein inh -5.3 and Mtb bLac sens 10.
CCC[C@@H]1C[C@@H](C(=O)NC(C(C)Cl)[C@H]2O[C@H](SC)[C@H](O)[C@@H](O)[C@H]2O)N(C)C1 (stereo partly specified) was read as RecA intein inh 0.5 and Mtb bLac sens 78.
Cc1cccc(N2CC3=C(C2=O)C(c2ccccc2)NC(=O)N3C)c1 (stereo unspecified) was read as YopH PTP inh -23, Mtb H37Rv -1%, Arbovirus anti 15, RecA intein inh -0.1 and Mtb bLac sens -2.
`NC(=O)C1CC(=O)N(Cc2ccc3c(c2)OCO3)C(=Nc2ccccc2)S1` (stereo unspecified) gave YopH PTP inh -30, Mtb H37Rv -1%, Arbovirus anti -8, RecA intein inh 3.7 and Mtb bLac sens 7.
`Cc1ccc([N+](=O)[O-])cc1NC(=O)CN1CCC(C)CC1` gave YopH PTP inh -24, Arbovirus anti 0, RecA intein inh 5.7 and Mtb bLac sens -7.
Screening CC1(C)CC(=O)C2=C(C1)OC(N)=C(C#N)C21C(=O)N(CN2CCOCC2)c2ccccc21 (stereo unspecified) returned YopH PTP inh -10, Mtb H37Rv -4%, Arbovirus anti -1, RecA intein inh 1.9 and Mtb bLac sens 3.
Screening CC(=O)Nc1cccc(NC(=O)COc2ccccc2C)c1 returned RecA intein inh -1.0 and Mtb bLac sens -6.
For N/C(=N\OC(=O)CCCN1C(=O)c2ccccc2C1=O)c1ccc(Cl)cc1 the results were YopH PTP inh -51, Mtb H37Rv -8%, Arbovirus anti 6, RecA intein inh -1.2 and Mtb bLac sens -10.
Screening CCN(Cc1ccccc1)C(c1ccncc1)c1nnnn1C(C)(C)C (stereo unspecified) returned YopH PTP inh -32, Mtb H37Rv -2%, Arbovirus anti -4 and Mtb bLac sens 2.
